# Bioassay records (PubChem BioAssay)
# RecA splice inh = Mtb RecA intein splicing inhibitors, primary screen, biochemical, fluorescence, HTS; Protein RecA (Mycobacterium tuberculosis (strain ATCC 25618 / H37Rv)), P9WHJ3; cell-free RecA intein splicing; inhibition, %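 (about 9 µM by stock and volumes)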; 290,000 compounds, 0.75% hits; AID 2221, 2009; in the data active = inhibition above about 30%; inconclusive = no clear call, values can overlap the other calls;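 note: 0% = vehicle wells and 100% = reference inhibitor control wells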
# Target sequence (P9WHJ3 whole entry, looked up, canonical isoform): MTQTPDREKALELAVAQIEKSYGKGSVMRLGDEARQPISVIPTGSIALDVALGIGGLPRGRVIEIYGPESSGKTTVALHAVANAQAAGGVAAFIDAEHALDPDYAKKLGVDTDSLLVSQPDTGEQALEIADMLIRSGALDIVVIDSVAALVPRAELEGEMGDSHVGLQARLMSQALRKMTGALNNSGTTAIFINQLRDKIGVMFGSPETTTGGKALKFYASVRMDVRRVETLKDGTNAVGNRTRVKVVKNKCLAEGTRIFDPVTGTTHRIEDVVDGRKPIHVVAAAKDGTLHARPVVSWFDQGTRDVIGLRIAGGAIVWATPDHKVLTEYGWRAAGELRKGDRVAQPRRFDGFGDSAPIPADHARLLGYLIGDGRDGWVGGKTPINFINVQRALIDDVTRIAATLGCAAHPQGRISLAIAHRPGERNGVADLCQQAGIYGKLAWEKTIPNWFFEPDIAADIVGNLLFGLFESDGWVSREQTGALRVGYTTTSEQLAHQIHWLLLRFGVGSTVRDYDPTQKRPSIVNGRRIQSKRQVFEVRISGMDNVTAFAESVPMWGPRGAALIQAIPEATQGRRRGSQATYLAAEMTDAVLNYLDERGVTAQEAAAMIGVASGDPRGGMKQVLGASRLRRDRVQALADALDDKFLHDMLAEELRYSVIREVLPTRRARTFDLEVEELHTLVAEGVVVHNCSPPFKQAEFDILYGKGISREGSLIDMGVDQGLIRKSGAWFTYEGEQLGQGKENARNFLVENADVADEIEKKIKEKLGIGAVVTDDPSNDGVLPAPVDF
# Mtb bLac sens = beta-lactam sensitization of Mtb H37Rv, H37Rv; M. tuberculosis H37Rv growth with meropenem, percent inhibition; hits of this screen are not shown here; inhibition, % at 25 µM; 330,000 compounds, 0.27% hits;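 active = about 74% or more and at least 40 points above the plate without the antibiotic, then above 30% in a dose series; inconclusive = first-round hits that could not be retested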;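 note: growth measured after seven days incubation then overnight dye step; 0% = bacteria only wells and 100% = bacteria with antibiotic; twin plates without the antibiotic show which effects depend on it; some results filed as inactive read as strong as hits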
# YopH PTP inh = YopH tyrosine phosphatase inhibitors, primary screen, biochemical, fluorescence Ex485/Em525 | YopH tyrosine phosphatase [Yersinia enterocolitica] | inhibition, %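 (about 10 µM by stock and volumes)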 | 140,000 compounds, 0.16% hits | AID 898, 2007;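 active = inhibition of 50% or more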;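 note: controls were vehicle for no effect and minimum signal wells for full effect; inactives centre near -20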
# Mtb growth = M. tuberculosis H37Rv growth inhibitors, H37Rv strain (AID 1626); M. tuberculosis H37Rv growth inhibition; higher % means a stronger effect; inhibition, % at 10 µM, or IC50 in µM where a hit was titrated; 220,000 compounds, 0.95% hits;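 active = confirmed in a dose series; inconclusive = inhibition above 80% but not taken into the dose series; inactive = below 80% or under 30% at every dose of the series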;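 note: bacteria incubated seven days before Alamar blue readout; 0% = bacteria only wells and 100% = bacteria with antibiotic wells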
# Arbovirus inh = antivirals against arbovirus infection, primary screen, cell-based, full library, 10K replicate subset | arbovirus infection cell-based antiviral screen | inhibition, % at 10 µM | 200,000 compounds, 0.37% hits | AID 1251, 2008;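 active = inhibition from about 30%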;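 note: bluetongue infection of BSR cells; cell survival read as ATP light after 72 h; 0% = infected wells without compound and 100% = uninfected wells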
# Arbovirus inh repeat = recorded beside Arbovirus inh, whose call it bears; inhibition, %; measured here: 10K subset replicate screen; many hits read low in the repeat;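 first of two repeat runs on a subset; 0% = infected and 100% = uninfected wells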
# Active calls of the source: *; ? = inconclusive; nt = no result given. Not all compounds are listed; the hit share may differ from the screen's.
SMILES,RecA splice inh,Mtb bLac sens,YopH PTP inh,Mtb growth,Arbovirus inh,others
O=C1C(=O)N(Cc2ccco2)C(c2cccs2)/C1=C(\O)c1cccc([N+](=O)[O-])c1 (configuration not stated),1.4,-4,nt,2%,nt,
CCN(CC)C(=O)Cn1c(=O)n(-c2ccccc2)c(=O)n1CC(=O)N(CC)CC,1.0,2,-29,-7%,-6,Arbovirus inh repeat=6
O=S(=O)(c1cccc(-c2cn3cc(Cl)ccc3n2)c1)N1CCOCC1,0.5,-9,-15,-4%,-5,
O=C(CN(C1CCCCC1)S(=O)(=O)c1ccccc1)NCc1ccco1,nt,5,-1,3%,4,
COc1ccc(CN(C)CC(=O)N2CCc3ccccc3C2)cc1,2.2,-1,nt,nt,nt,
O=C(COC(=O)c1ccc2ccccc2n1)Nc1cccc(S(=O)(=O)NC2=NCCCCC2)c1,nt,5,nt,-1%,-2,
COc1ccccc1OCCC(=O)OCC(=O)Nc1cc(S(=O)(=O)N(C)C)ccc1Cl,-2.4,-1,nt,-5%,5,
Cc1cc(-c2n[nH]c(=S)n2/N=C/C(Br)=C/c2ccccc2)n[nH]1,2.3,98,-13,?,-35,
O=C(NC1CCCCC1)c1ccc(COCC(F)(F)F)o1,0.2,-3,20,-13%,-10,
C=C(C)CSc1ncc(-c2cccc(C(F)(F)F)c2)cn1,nt,16,-39,-3%,9,
Cc1noc(C)c1-c1nc(CS(=O)(=O)c2ccccc2)no1,nt,-5,nt,-5%,nt,
O/N=C/CCn1c(=S)sc2ccccc21,-2.4,-8,-37,-12%,4,
CCOC(=O)c1cnn(-c2ncnc3c2cnn3Cc2ccccc2)c1N,1.4,1,-24,4%,nt,
Cc1ccc(NC(=O)Cn2cnc3ccccc32)cc1C,-1.1,-1,nt,2%,9,
CCOc1cc(C(C#N)N2CCOCC2)ccc1OC (configuration not stated),-1.2,-15,-26,-3%,4,
O=C(CSc1nnc(-c2ccco2)n1CC1CCCO1)NC1CCCC1 (configuration not stated),0.1,-9,-118,3%,-5,
Cc1ccc(C)c(NC(=S)N/N=C2\CCc3ccccc32)c1,5.6,-4,nt,0%,nt,
Cc1c(N=C2Nc3cccc4cccc2c34)c(=O)n(-c2ccccc2)n1C,-3.9,3,-3,-5%,-4,
Cc1cccc(OCCn2c(-c3ccco3)nc3ccccc32)c1,13,-1,-6,-13%,-22,
O=C(COC(=O)c1ccc(Br)cc1)NCCc1ccccc1,1.7,10,-29,3%,7,
O=C(N/N=C/c1cnc(N2CCOCC2)s1)c1ccccc1,0.9,1,nt,-5%,14,
O=C(Nc1ccc(N2CCOCC2)cc1)c1ccc(Cl)nc1,-0.1,-13,-24,0%,-5,
COc1ccc(CCNC(=O)CCC(=O)N2CCOc3ccccc32)cc1OC,0.5,-8,nt,nt,nt,
Cc1cc(NC(=O)C(C)SCC(=O)OC(C)C(=O)Nc2ccccc2C)no1 (configuration not stated),-71,1,nt,nt,nt,

# Quoted at random: 5 records from the list
SMILES,RecA splice inh,Mtb bLac sens,YopH PTP inh,Mtb growth,Arbovirus inh,others
Cc1ccc(C)c(NC(=S)N/N=C2\CCc3ccccc32)c1,5.6,-4,nt,0%,nt,
O=C(N/N=C/c1cnc(N2CCOCC2)s1)c1ccccc1,0.9,1,nt,-5%,14,
CCOc1cc(C(C#N)N2CCOCC2)ccc1OC (configuration not stated),-1.2,-15,-26,-3%,4,
O=C(Nc1ccc(N2CCOCC2)cc1)c1ccc(Cl)nc1,-0.1,-13,-24,0%,-5,
Cc1c(N=C2Nc3cccc4cccc2c34)c(=O)n(-c2ccccc2)n1C,-3.9,3,-3,-5%,-4,

# (further entries)
SMILES,RecA splice inh,Mtb bLac sens,YopH PTP inh,Mtb growth,Arbovirus inh,others
CCCCCC(=O)NC(=S)Nc1ccc(Cl)cn1,2.1,3,-7,8%,-1,
Cn1nc(-c2ccccc2)c(C(=O)NCC(=O)O)c1Cl,0.5,-4,nt,-9%,5,
CCN(CC)CCn1c(SCC(=O)Nc2ccc(F)cc2)nc2c(sc3ccccc32)c1=O,1.9,3,nt,3%,-3,
CCOC(=O)CC1=C(C(=O)OCC)C2(C(=O)N1CC(=O)OC)C(C#N)=C(N)Oc1ccccc12 (configuration not stated),4.3,-1,15,-10%,-5,
CCOC(=O)CC(=O)Nc1nnc(CC(C)C)s1,0.9,19,-27,-8%,5,
Cc1cc(C(=O)NCC(=O)OCC(=O)N(C(C)C)C(C)C)ccc1[N+](=O)[O-],-1.0,3,-20,-6%,5,
COC(=O)CS(=O)(=O)c1ccsc1C(=O)Nc1ccc(F)cc1,-2.4,-7,nt,-8%,-3,
CCc1ccc(S(=O)(=O)NC2CCCCNC2=O)cc1 (configuration not stated),2.6,-13,nt,nt,nt,
C=CCN(c1ccccc1)S(=O)(=O)c1cccc(C(=O)OCC(=O)NC2CC2)c1,1.5,-4,nt,2%,0,
CCOC(=O)CN(C)Cc1c[nH]c2ccccc12,12,-9,-22,nt,0,
CCCOc1nc2c(c(=O)n(C)c(=O)n2C)n1Cc1cccc2ccccc12,-1.2,2,-40,-2%,4,Arbovirus inh repeat=-9
CCCc1cc(=O)[nH]c(SCCCCN2C(=O)c3ccccc3C2=O)n1,nt,7,nt,2%,3,
Cc1cc(-c2nc(-c3ccncc3)no2)ccc1[N+](=O)[O-],2.5,-2,nt,nt,nt,
COc1cc(OC)c(C2CC(=O)N3CN(C)CSC3=C2C#N)cc1OC (configuration not stated),1.1,-1,-7,5%,3,Arbovirus inh repeat=0
O=C(Nc1ccc(S(=O)(=O)N2CCCCCC2)cc1)c1ccco1,3.3,0,27,-2%,9,
O=C(NC1CCCc2ccccc21)C1CCN(c2c3c(nc4ncnn24)CCC3)CC1 (configuration not stated),2.1,?,-41,-6%,12,
O=c1c2ccccc2nc(/C=C/c2ccccn2)n1-c1ccccc1,-11,-4,nt,nt,nt,
COc1ccccc1C(=O)NC(=O)COC(=O)c1ccc(NC(=O)CC#N)cc1,1.0,-5,nt,nt,nt,
O=C(COC(=O)CCOc1ccccc1)Nc1ncc(Cl)cc1Cl,-1.7,-3,-40,-7%,5,
CCCCOc1ccc(CCC(=O)N/N=C/c2ccco2)cc1,10,60,nt,36%,nt,
COc1ccc(CNC(=O)C2CCCN(c3nc4ccccc4o3)C2)c(OC)c1 (configuration not stated),-0.1,4,-56,-4%,7,
COC(=O)C1=C(N)Oc2cc(C)oc(=O)c2C12C(=O)Nc1ccccc12 (configuration not stated),1.1,0,nt,11%,8,
Cc1ccc(N2C(=O)C(NC(=O)c3c(F)cccc3F)(C(F)(F)F)C3=C2CC(C)(C)CC3=O)cc1 (configuration not stated),6.4,3,-29,0%,-5,
O=C1NC(c2ccccc2)C(C(=O)c2cccs2)C(O)(C(F)(F)F)N1 (configuration not stated),2.9,-6,-42,1%,3,
COc1cccc(C(=O)N2CCN(Cc3cccc(F)c3)CC2)c1,-0.1,-8,-3,-5%,4,
S=c1[nH]nc(-c2ccccn2)n1/N=C/c1c(Cl)cccc1Cl,3.3,2,nt,-5%,nt,
O=C(N/N=C/c1ccc(-c2ccc([N+](=O)[O-])cc2)o1)C(O)c1ccccc1 (configuration not stated),-5.0,94,4,?,2,
Cc1cc(C)cc(OCC(=O)OCC(=O)Nc2c(C)n(C)n(-c3ccccc3)c2=O)c1,-0.3,-8,nt,-11%,6,
Nc1nnn(CC(=O)N/N=C/c2ccc(Cl)cc2Cl)n1,1.0,-8,nt,-10%,nt,
N#C/C(=C\c1ccc(OCC(N)=O)cc1)c1ccccc1,-0.6,84,-7,80%,-8,
Cc1c(NC2=C(Cl)C(=O)N(c3ccccc3Cl)C2=O)c(=O)n(-c2ccccc2)n1C,-2.1,7,-20,1%,0,
O=[N+]([O-])c1cccc(S(=O)(=O)N2CCCC2)c1,-0.1,1,-20,3%,-1,
O=C(N/N=C\c1ccc(-c2ccc(Cl)c(Cl)c2)o1)C(=O)N1CCCC1,-17,99,5,?,14,
COc1ccc(NC(=O)C(=O)NCCC2CCCCN2S(=O)(=O)c2ccccc2)cc1 (configuration not stated),0.2,-8,nt,nt,nt,
COc1cc(OC)c2ccc(=O)oc2c1C(CC(=O)N1CCCC(C)C1)c1ccc2c(c1)OCO2 (configuration not stated),6.1,15,nt,-2%,nt,
Cc1ccc(NC(=O)C2CCCN2C(=O)NC2CCCCC2)cc1 (configuration not stated),0.6,2,nt,0%,-1,
Cc1cc(/C=C2/C(=N)N3C(c4ccccc4)=CSC3=NC2=O)c(C)n1-c1ccccc1,-3.5,65,-21,5%,-9,
CCOc1ccc(-c2nc(CSCC(=O)NC3CC3)c(C)o2)cc1,0.4,-2,nt,nt,nt,
Cc1nc(C)n(CC(O)COc2ccc3c(c2)CCC3)n1 (configuration not stated),-2.4,12,5,2%,10,
C#CCNC(=O)C1=C[C@@H](c2csc3ccccc23)[C@H](CCCO)[C@@H](OCC)O1,3.2,-6,nt,-8%,6,
Cc1cc(NC(NC(=O)c2ccco2)(C(F)(F)F)C(F)(F)F)no1,-0.5,4,-20,-3%,-5,
COc1cc(-c2nnc(SCc3ccccc3Cl)o2)cc(OC)c1OC,0.0,0,-42,nt,-2,
COc1ccc(OC)c2[nH]c(=O)c(CCNC(=O)CC(C)C)cc12,0.7,2,-29,2%,5,
COC(=O)C1=C(C)N(CC2CC2)C(=NCc2cccc(Cl)c2)N[C@H]1c1ccccc1,4.9,19,nt,nt,nt,
COC(=O)c1cccc(S(=O)(=O)N2CCC(NC(=O)Nc3cccc(F)c3)CC2)c1,1.1,-9,-55,-5%,-5,
CC1(C)COC(c2cccc(C3=NC(C)(C)CO3)n2)=N1,-1.1,6,-22,6%,-3,
CC1CCCC(C)N1CCCNC(=O)c1csc2c1CCCCC2 (configuration not stated),-3.0,1,nt,nt,nt,
Cc1onc(-c2ccccc2Cl)c1NC(=O)NCc1cccs1,1.0,-13,nt,-16%,nt,
Cc1ccc(NC(=O)Nc2ncnc3nc[nH]c23)cc1,-1.1,19,nt,-2%,nt,
CCC1(C)Cc2[nH]c(=O)c(C#N)cc2CO1 (configuration not stated),0.4,-8,nt,1%,8,
CC(NC(=O)c1cccnc1Sc1ccccc1)c1ccc(S(N)(=O)=O)cc1 (configuration not stated),0.7,-3,nt,nt,nt,
Cc1ccc(CN2CCNC(=O)C2CC(=O)N(Cc2c(C)nn(C)c2C)C2CC2)o1 (configuration not stated),-0.3,-7,nt,1%,8,
NS(=O)(=O)c1ccc(CCNC(=O)COC(=O)/C=C/c2ccccc2Cl)cc1,-0.4,0,nt,-2%,3,
CCOc1ccc(-c2noc(CCC(N)=O)n2)cc1OCC,nt,7,-14,9%,2,
Cc1ccc(S(=O)(=O)NCC(=O)NC2CCCC2)cc1,-0.4,nt,-4,0%,5,
CCCC(=O)Nc1cc(-c2nnc(OC)c3ccccc23)ccc1N1CCOCC1,-0.2,3,12,-1%,nt,
CCN(CC)S(=O)(=O)c1cccc(C(=O)OCC(=O)Nc2ccc3c(c2)c2ccccc2n3CC)c1,1.7,9,-9,-1%,-2,
Cc1noc(NS(=O)(=O)c2ccc(N/C=C\C(=O)c3ccc4c(c3)OCO4)cc2)c1C,0.0,nt,-13,-2%,15,
CCOC(=O)Cc1csc(NC(=O)Cc2cccs2)n1,2.0,-5,-9,3%,5,
CCCSc1ncnc2sc(C)c(C)c12,0.8,-4,nt,2%,-4,

# Sorted by SMILES length (low to high): part of the list above
SMILES,RecA splice inh,Mtb bLac sens,YopH PTP inh,Mtb growth,Arbovirus inh,others
CCOC(=O)Cc1csc(NC(=O)Cc2cccs2)n1,2.0,-5,-9,3%,5,
Cc1ccc(NC(=O)Nc2ncnc3nc[nH]c23)cc1,-1.1,19,nt,-2%,nt,
Cc1ccc(CN2CCNC(=O)C2CC(=O)N(Cc2c(C)nn(C)c2C)C2CC2)o1 (configuration not stated),-0.3,-7,nt,1%,8,

# Continuation:
SMILES,RecA splice inh,Mtb bLac sens,YopH PTP inh,Mtb growth,Arbovirus inh,others
CCOCCCNC(=O)c1cn(CC(C)C)c(=O)c2cc(OC)c(OC)cc12,14,nt,-16,nt,2,Arbovirus inh repeat=4
CC1=NN(C(=O)COc2ccccc2)C(O)(c2cccnc2)C1 (configuration not stated),nt,8,nt,-2%,-1,
O=C(c1cccc(C(F)(F)F)c1)C1CCCN(C(=O)Cn2cncn2)C1 (configuration not stated),1.2,7,nt,nt,nt,
COc1ccc(N2C(=S)NC3N2C(=S)NC3(C)c2ccccc2)cc1 (configuration not stated),0.6,97,nt,?,-27,
Cc1cc(N=Nc2ccccc2C(=O)O)c(C)c(C)c1O,3.7,-2,nt,6%,nt,
O=C(O)c1cn(Cc2ccccc2)nc1-c1cccnc1,2.0,4,nt,0%,-2,
